Screening results: PubChem BioAssay, Center for Chemical Genomics, University of Michigan
CDC25B-CDK2 inh = human CDC25B-CDK2/CyclinA binding inhibition. P30305+P24941. 0.72% of 94,000 active. HTRF CDC25B-CDK2/CyclinA binding, anti-His/anti-Flag; hits give high values. z-score (concentration not given with the values);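 further: score is relative to mean and SD of negative controls; strong numbers were not always called active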
HIV TAR-Tat = HIV-1 TAR-Tat binding disruption. 0.6% of 100,000 active. HIV-1 TAR RNA, Tat peptide displacement FRET; hits give high values. z-score (no concentration beside the values);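 further: score is relative to mean and SD of negative controls; some compounds called inactive have numbers as strong as hits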
Starred values were filed as active, the others as inactive; · = not tested or not shown.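 How the source made its calls: active means z-score from 3 up in half or more of its runs; inactive means the rest.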

SMILES	CDC25B-CDK2 inh	HIV TAR-Tat
C=CCOC(=O)C1=C(C)Nc2nc(SCC(C)C)[nH]c(=O)c2C1c1cccc(F)c1 (stereo unspecified)	0.92	1.4
CCc1ccc(N2C(=O)C3N=NN(Cc4ccc(Cl)cc4)C3C2=O)cc1 (stereo unspecified)	2.8	0.8
CCc1nn(CCCN2CCN(c3cccc(Cl)c3)CC2)c(=O)n1CCOc1ccccc1	·	-0.14
COc1ccc(OCc2nc(-c3cccc(OC)c3)no2)cc1	1.5	0.16
CC1=C(c2ccc(F)cc2)S(=O)(=O)N=C1N1CCOCC1	·	-0.84
CCOc1ccc(C2NC(=O)c3n[nH]c(-c4ccco4)c32)cc1 (stereo unspecified)	-0.17	-2.5
O=C(NC1CCCC1)c1nn(-c2ccccc2F)nc1CO	-2.1	-2.4
O=C(Nc1nn2c(-c3ccco3)nnc2s1)c1ccco1	-1.1	22*
O=C(c1ccc([N+](=O)[O-])o1)N1CCOCC1	-1.4	·
Fc1cccc(Cl)c1CSc1nc2ncccc2[nH]1	·	0.41
CCOc1cc(C)c(S(=O)(=O)n2ccnc2)cc1C	-0.92	-0.96
CCc1cc2c(N3CCC(C(=O)NCCC(C)C)CC3)ncnc2s1	·	0.82
COc1ccc(CNCCCSc2nnnn2C)cc1OC	-0.08	0.25
O=C(c1cccc(Cl)c1)N1N=C(c2ccc(Br)cc2)CC1(O)C(F)(F)F (stereo unspecified)	-1.1	·
NS(=O)(=O)c1ccc(NC(=O)CCN2C(=O)S/C(=C\c3ccc(Cl)cc3)C2=O)cc1	1.3	·
O=C(CN1c2ccccc2NC2=C(C(=O)CCC2)C1c1cccs1)NCc1cccs1 (stereo unspecified)	·	2
COc1ccccc1OCc1nnc(-c2ccccc2)o1	-0.18	1.2
Fc1ccc(OCCc2nc(-c3ccc(C4SCCS4)cc3)no2)cc1	-0.91	·
CSC(=NC12CC3CC(CC(C3)C1)C2)NC#N	-1.8	·
O=C(COc1ccc(F)cc1)Nc1ccc(OCc2cc(=O)n3ccsc3n2)cc1	-0.1	0.53
O=C(O)c1ccn2c(C(=O)c3ccccc3)c(-c3ccccc3)cc2c1	-0.9	0.58
CC1=C(C(=O)OCCc2ccccc2)C(c2ccccc2C)C2=C(CCCC2=O)N1 (stereo unspecified)	-0.02	0.85
Cn1ccc2cc(S(=O)(=O)N3CCCC(C(=O)NCc4ccco4)C3)ccc21 (stereo unspecified)	·	-0.32
O=C(c1ccc(CSc2nc3cccnc3n2Cc2ccccc2)cc1)N1CCCC1	·	-0.36
COCCNC(=O)c1ccc(N2CCc3ccccc32)s1	·	-0.99
COc1ccc(CN2C(=O)c3oc4ccc(Br)cc4c(=O)c3C2c2ccc(O)cc2)cc1 (stereo unspecified)	-0.98	-0.14
Cc1c(CN(C)C(=O)CSc2nc(-c3ccco3)cc(C(F)(F)F)n2)cnn1C	-1.6	0.05
CC(C)CCN1CCC(CNS(=O)(=O)c2ccc3[nH]c(=O)ccc3c2)CC1	·	1.3
CC(C)c1nc(/N=C/N(C)C)nc(=O)n1C	-1.5	·
Cn1c(=O)c2sccc2n2c(CCCC(=O)NCc3ccccn3)nnc12	·	0.72
Cc1nc2cc(NCc3ccco3)ccc2n1C	16*	-0.08
O=S(=O)(c1ccc(-c2noc(COc3ccc(Cl)cc3)n2)cc1)N1CCCCC1	·	1.5
COc1ccc(OC)c(C(=O)c2c(N)c(-c3nc(-c4ccccc4)cs3)c3ccccn23)c1	2.9	-0.06
COc1ccc(Br)cc1C1CC(=O)Nc2nc(SCc3ccc(F)cc3)[nH]c(=O)c21 (stereo unspecified)	-2.5	0.92
CC1CCC(NC(=O)c2cc3c(Cl)ccc4c3n2CCO4)CC1 (stereo unspecified)	·	0.71
CCCCN(CCCC)S(=O)(=O)c1ccc2c(c1)NC(=O)CO2	·	0.71
O=C(CCc1ccccc1)N(c1cccc(Cl)c1)C1C=CS(=O)(=O)C1 (stereo unspecified)	-2.6	-0.36
COc1cc(O)cc(O)c1C(=O)/C=C/c1ccccc1	·	0.99
COc1ccc(OC)c(Nc2c(-c3ccc4c(c3)OCC(=O)N4)c(=O)c2=O)c1	·	0.45
CCc1cc(=O)oc2cc(C)cc(OCC(=O)C(C)(C)C)c12	0.33	·

Ordered by count of non-hydrogen atoms (low to high): some entries from above.
SMILES	CDC25B-CDK2 inh	HIV TAR-Tat
CSC(=NC12CC3CC(CC(C3)C1)C2)NC#N	-1.8	·
Fc1cccc(Cl)c1CSc1nc2ncccc2[nH]1	·	0.41
Cc1c(CN(C)C(=O)CSc2nc(-c3ccco3)cc(C(F)(F)F)n2)cnn1C	-1.6	0.05
CC1=C(C(=O)OCCc2ccccc2)C(c2ccccc2C)C2=C(CCCC2=O)N1 (stereo unspecified)	-0.02	0.85
O=C(CN1c2ccccc2NC2=C(C(=O)CCC2)C1c1cccs1)NCc1cccs1 (stereo unspecified)	·	2
COc1ccc(CN2C(=O)c3oc4ccc(Br)cc4c(=O)c3C2c2ccc(O)cc2)cc1 (stereo unspecified)	-0.98	-0.14

(more compounds)
SMILES	CDC25B-CDK2 inh	HIV TAR-Tat
Cc1ccc(-n2[nH]c(C)c(C=Nc3ccc(OC(F)(F)F)cc3)c2=O)cc1	-0.24	·
Cc1nc2cc(S(=O)(=O)N3CCC(C(=O)NCCN4CCCC4)CC3)ccc2n1C1CCCC1	0.97	1.7
COc1ccccc1Nc1ncnc2sc3c(c12)CCCC3	-2.2	·
Cc1cc(C)c2c(C)c(C(=O)N(Cc3ccc(C)o3)C3CCS(=O)(=O)C3)oc2c1 (stereo unspecified)	-1.2	1.2
COc1cc(O)c2c(=O)cc(-c3ccc(O)cc3)oc2c1	·	0.99
O=S(=O)(NCCc1csc(-c2cccc(F)c2)n1)c1ccc(F)cc1	·	2
COc1ccc(-c2ccc(-c3noc(-c4ccccc4C)n3)c(OC)n2)cc1	0.51	-2.8
Cc1c(Cl)c(C(F)(F)F)nn1CC(=O)Nc1ccc(Br)cc1	0.22	-0.26
Cn1nc(-c2ccccc2)c(O)c(N=Nc2ccccc2)c1=O	-3	·
Cc1cc(C)cc(NS(=O)(=O)c2cc(-c3cc(C)[nH]n3)ccc2C)c1	·	0.39
CCc1nnc2c3ccccc3nc(Nc3cc(Cl)ccc3OC)n12	·	2.1
COCCOCC(O)CN1CCN(c2ccccc2)CC1 (stereo unspecified)	-3.2	1.4
Cn1c(=O)oc2cc(S(=O)(=O)CCC(=O)N3CCN(c4cccc(Cl)c4)CC3)ccc21	·	11
CCOC(=O)C1CCCN(C(=O)c2ccc(N3CCSc4ccccc43)s2)C1 (stereo unspecified)	·	0.8
Cc1ccc(Nc2c(-c3ccccc3O)nc3ncccn23)cc1C	-2.8	-0.09
Cc1cccc2c(=O)oc(-c3ccc4c(c3)C(=O)N(CC3CCCO3)C4=O)nc12 (stereo unspecified)	0.09	·
CN1C(=O)C2CCCCN2c2ccc(C(=O)N3CCN(Cc4ccc5c(c4)OCO5)CC3)cc21 (stereo unspecified)	·	1.5
CCn1cc(S(=O)(=O)c2ccc(C)cc2)c(=O)c2cc(F)c(N3CCCC(C)C3)cc21 (stereo unspecified)	·	0.85
O=C(c1ccc2nccnc2c1)N1CCCc2ccccc21	-0.46	·
COc1cc(OC)c(NC(=O)CN2N=NC3C(=O)N(c4ccc(F)cc4)C(=O)C32)cc1Cl (stereo unspecified)	·	0.16
CCn1nccc1C(=O)NC1=C(C#N)CCC1	-0.43	2.5
c1cncc(C2=NN3C(C2)c2ccccc2OC3c2cccs2)c1 (stereo unspecified)	-1.7	-0.84
COc1ccc(C2/C(=C(\O)c3ccccc3)C(=O)C(=O)N2c2nc3ccccc3s2)cc1OC (stereo unspecified)	-3.5	0.31
O=C(CSc1nnc(-c2ccncc2)o1)NC(=O)Nc1ccccc1	-0.29	·
COc1ccc(OC)c(S(=O)(=O)Nc2cc(N3CCCS3(=O)=O)ccc2OC)c1	·	0.48
Cc1ccc(S(=O)(=O)N2CCN(Cc3ccc4c(c3)OCO4)CC2)cc1C	-0.55	1.1
CCOC(=O)N1CCN(c2cc(NCCOC)c3c4c(onc24)-c2ccccc2C3=O)CC1	-1.4	1.3
O=C(Nc1ccc(Br)cc1F)c1sccc1-n1cccc1	-0.17	0.28
CCCn1c(Cc2ccc(Cl)c(Cl)c2)n[nH]c1=S	-0.45	·
CN(C)n1cccc1C=N/C(C#N)=C(\N)C#N	-2	·
Cc1ccc(Cn2ncc3c(N4CCN(Cc5ccc(Cl)cc5)CC4)ncnc32)cc1	·	0.19
Cc1cc(C(=O)Nc2ccc(Cl)cc2)c(C)n1-c1ccccc1	-1.5	·
COc1ccc(Nc2c(-c3ccco3)nc3ccc(Cl)cn23)cc1	0.42	·
COCCCN1CN(Cc2ccccc2)CNC1=S	-1.4	·
CN1CCN(C(=O)c2ccc(Cn3c(=O)c4cccn4c4cccnc43)cc2)CC1	·	-1.7
C=C(C)CSc1nc2sc3c(c2c(=O)n1CC(=C)C)CC(C)(C)OC3	-1.2	-0.78
CC(C)(C)NC(=O)CSc1nc2ccccc2[nH]1	-0.85	0.49
CC1CCCN(C(=O)Cc2noc3ccccc23)C1 (stereo unspecified)	-1.2	1.1
Cc1cc(CNC(=O)NCc2ccco2)c(C)n1-c1ccc(F)cc1	·	-0.01
O=C1CCCc2c1c1ccccc1n2Cc1ccccc1	-1.9	·
CCOC(=O)C1=C(C)NC2=C(C(=O)CCC2)C1c1ccc(OC)c(Br)c1 (stereo unspecified)	-1.2	0.95
Cc1cccc2nc(-c3ccc(O)cc3)c(Nc3ccc4c(c3)OCCO4)n12	-0.57	·
O=S(=O)(NCCc1nnc2ccc(SCc3cccc(Cl)c3)nn12)c1ccccc1	·	0.37
CCCCNc1nc(Oc2ccc(OCCC)nn2)nc(N2CCOCC2)n1	-0.98	0.57
Cc1ccc(S(=O)(=O)N(CCS(=O)(=O)N2CCNCC2)C2CC2)cc1	·	2
Cc1cc2c3c([nH]c2cc1S(=O)(=O)NCc1ccc(F)cc1)CC(C)(C)CC3=O	·	0.96
COc1ccc(C(=O)N=S2CCN(S(=O)(=O)c3ccc(Cl)cc3)CC2)cc1	0.17	·
O=C(Nc1ccc(F)cc1)c1nn(-c2ccc(Cl)cc2)ccc1=O	-0.85	0.12
Cc1cc(SCc2[nH]nc3oc(=O)cc(C)c23)c(C)cc1Cl	-1.1	·
CCOC(=O)c1nc(NCCN2CCOCC2)c2oc3ccccc3c2n1	·	1.4

Other compounds follow.
SMILES	CDC25B-CDK2 inh	HIV TAR-Tat
Cc1cccc(-c2nc(-c3ccc4c(c3)nnn4C3CCCC3)no2)c1	·	-0.14
Cc1ccc(-c2noc(-c3cn(Cc4ccc(N)cc4)cn3)n2)cc1	-0.89	-0.4
CCN1C(=O)CCS(=O)(=O)c2ccccc21	1.2	0.32
O=C(Nc1nnc(SCc2nc3ccccc3[nH]c2=O)s1)c1cccc(F)c1	·	-2.6
CCCN1CCN(C(=O)CCc2c(C)nn3cnnc3c2C)CC1	·	-0.43
COCCNc1nc2c(-c3ccccc3)nnn2c2ccccc12	-1.7	-0.67
COc1ccccc1NC(=O)CSc1ncc2c(n1)-c1ccccc1N(C)S2(=O)=O	·	0.33
CCC(C(=O)NCc1ccccn1)n1nc(C)n2c(cc3occc32)c1=O (stereo unspecified)	0.91	0.21
CC(C)NC(=O)CSc1nc2c(cnn2-c2ccc(Cl)cc2)c(=O)[nH]1	·	1.7
Cc1csc(NC(=O)CSc2nc(-c3ccco3)nc3c2c(=O)n(C)c(=O)n3C)n1	·	-0.09
O=[N+]([O-])c1cc(C(F)(F)F)cc([N+](=O)[O-])c1Oc1cccc(N2CCOCC2)c1	-2.1	·
c1cc2nc3c(nc2c2nonc12)CCCC3	-1.7	·
CCOc1ccccc1OCc1nn2c(-c3ccccc3Br)nnc2s1	-1.1	2.6
COc1ccc(OC)c(C2C(C#N)=C(N)Oc3c2c(C)nn3-c2ccc(C)cc2)c1 (stereo unspecified)	-2.2	-1.6
CCOc1ccc(N(Cc2cccc(C)c2)C2=NC3CS(=O)(=O)CC3S2)cc1 (stereo unspecified)	-2.6	0.6
O=S(=O)(c1cccs1)N1CCN(c2ncccn2)CC1	-0.32	·
COc1ccc(NC(=O)c2ccccc2C(F)(F)F)cc1OC1CCCC1	-0.52	·
CCN(CC)CCNC(=O)c1cc(Br)c(N)cc1OC	·	1.4
COc1ccccc1C1OC(=O)C[C@@H]1C(=O)Nc1nncs1 (stereo partly specified)	-2.4	·
CC(Nc1oc(/C=C/c2ccc(F)cc2)nc1C#N)c1ccccc1 (stereo unspecified)	-1.7	0.88

Entries of single compounds, quoted from the list. Screens in order: CDC25B-CDK2 inh, HIV TAR-Tat
Results for CCN(CC)CCNC(=O)c1cc(Br)c(N)cc1OC : ·, 1.4
Results for COc1ccc(NC(=O)c2ccccc2C(F)(F)F)cc1OC1CCCC1 : -0.52, ·
Results for CCOc1ccccc1OCc1nn2c(-c3ccccc3Br)nnc2s1 : -1.1, 2.6
Results for COc1ccc(OC)c(C2C(C#N)=C(N)Oc3c2c(C)nn3-c2ccc(C)cc2)c1 (stereo unspecified) : -2.2, -1.6

Following part.
SMILES	CDC25B-CDK2 inh	HIV TAR-Tat
CCc1ccc(CNCCCSc2nnnn2C)cc1	-1.2	1.3
O=C(c1ccc(Cn2c(=O)c3cccn3c3cccnc32)cc1)N1CCN(C(=O)c2ccco2)CC1	·	-1.4
O=S(=O)(c1ccccc1)c1nnn2c1nc(NCc1ccccc1)c1sccc12	·	-0.5
CC1=C(c2cccc(Br)c2)S(=O)(=O)NC1=NCCN1CCOCC1	-1.1	-0.1
O=C(NC1CCCC1)c1cn(-c2cccc(Cl)c2)nn1	·	1.8
O=C(CSc1nnc(-c2ccco2)c(-c2ccco2)n1)Nc1cnc2ccccc2c1	0.46	26*
Cc1ccccc1OCC(=O)OCc1cc(=O)n2c(C)csc2n1	·	0.66
CCOC(=O)c1c(C)oc2ncnc(N(CC(C)C)CC(C)C)c12	·	-1.6
Cc1ccc(N(C)C(=O)C(C)CS(=O)(=O)c2ccc3c(c2)NC(=O)C(C)S3)cc1 (stereo unspecified)	·	-1.1

Among those listed so far, these contain a nitro group on carbon.
SMILES	CDC25B-CDK2 inh	HIV TAR-Tat
O=C(c1ccc([N+](=O)[O-])o1)N1CCOCC1	-1.4	·
O=[N+]([O-])c1cc(C(F)(F)F)cc([N+](=O)[O-])c1Oc1cccc(N2CCOCC2)c1	-2.1	·
